Screens from PubChem.
B2AR ag – activates human beta-2 adrenergic receptor causing internalization. Am2.2-beta2AR cells, FAP receptor internalization, flow cytometry; reference of the scale not given here. 340,000 tested, 0.43% active. response, % (no concentration beside the values). P07550;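 active = response above a set limit, near 3 SD of response in nonfluorescent compounds, cut at about 42% in these data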;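 note: stock transfer was 100 nL into about 11 µL; a reference agonist was the positive control; negative values mostly stem from fluorescent compounds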
Target sequence (P07550 whole entry, looked up): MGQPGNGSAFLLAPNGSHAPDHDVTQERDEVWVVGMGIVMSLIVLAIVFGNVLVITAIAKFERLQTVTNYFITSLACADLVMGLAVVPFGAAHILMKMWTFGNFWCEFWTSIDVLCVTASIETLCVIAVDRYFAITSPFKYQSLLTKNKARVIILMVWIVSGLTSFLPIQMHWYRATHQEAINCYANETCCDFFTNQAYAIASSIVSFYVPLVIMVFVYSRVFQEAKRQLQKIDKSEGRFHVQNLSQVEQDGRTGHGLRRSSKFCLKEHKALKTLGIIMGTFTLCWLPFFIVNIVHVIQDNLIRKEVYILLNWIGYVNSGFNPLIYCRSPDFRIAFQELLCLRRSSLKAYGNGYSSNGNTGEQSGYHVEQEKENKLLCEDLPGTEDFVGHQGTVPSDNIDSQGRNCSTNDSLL
HNF4A DNA FP – change in binding of human HNF4 alpha to DNA; P41235; HNF4a-FITC DNA binding, fluorescence polarization, 1 h; activity change, % at 10 µM; 360,000 tested, 0.3% active; AID 1224865; in the data active = activity change above about 30%, passing the limit was not always enough;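 note: controls were the assay level and a saturating level of protein; the project sought stronger binding though the title names inhibitors; some compounds called inactive have numbers as strong as hits; positive values seem to mean higher polarization but the record does not say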
FGF22 binding – binders of recombinant human FGF22 by thermal shift; Q9HCT0; SYPRO orange fluorescence; percent of sucrose octasulfate shift, DMSO zero; calls only at 9.99 µM; 340,000 tested, 1.5% active; AID 651658;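 active = melting point raised past a set limit in the mean and every replicate; three in four hits are not shown here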
Target sequence (Q9HCT0 whole entry, looked up): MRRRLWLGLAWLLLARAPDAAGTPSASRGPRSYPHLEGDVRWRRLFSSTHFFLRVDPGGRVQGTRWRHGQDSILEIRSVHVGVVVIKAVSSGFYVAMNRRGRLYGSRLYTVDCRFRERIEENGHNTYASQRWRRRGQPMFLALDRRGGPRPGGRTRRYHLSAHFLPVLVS
E coli growth – inhibitors of Escherichia coli growth; OD600 absorbance (concentration not given with the values); 330,000 tested, 0.21% active; OD600, 23 h; active compounds read low;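 active = OD600 absorbance below the run mean of sample wells minus 3.6 SD, in any replicate, cut at about 0.56 in these data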;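 note: stock transfer was 300 nL into about 60 µL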
UCH37 DUB inh – blocks the human deubiquitinase UCH37; inhibition, % (test concentration not listed); Q9Y5K5; 330,000 tested, 0.33% active; purified proteasome/UCH37, Ub-AMC cleavage fluorescence;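 active = mean of two replicates above 20%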;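 note: 0% = compound-free wells with enzyme and 100% = wells lacking proteasome; stock transfer was 100 nL into about 20 µL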
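Material: Human UCH37 enzyme supplied as purified proteasome complex | Schedule: 30 min compound-proteasome preincubation then 25 min substrate reaction, room temperature | Detection: AMC fluorescence from Ub-AMC cleavage, excitation 355 nm, emission 460 nm | Benchmarks: Wells without proteasome as full block, compound-free enzyme plus substrate as uninhibited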
Ecoli rRNA inh – inhibitors of bacterial rRNA selective over humanized ribosomes; E. coli WT GFP vs humanized-ribosome RFP mutants, fluorescence, 24 h; active compounds read low; DMSO median 0, no signal -100; GFP signal change (wild-type ribosome), % (concentration not given with the values); 350,000 tested, 1.6% active; AID 720706;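 active = significant combined selectivity score with lowered wild-type GFP, culture density cut under 30%, mutant RFP and density less affected; inactive = any of these conditions unmet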; note: one replicate is shown; some compounds called inactive have numbers as strong as hits
ALR H2O2 inh – human ALR oxidase inhibition via reduced H2O2. 290,000 tested, 3.8% active. inhibition, % (test concentration not listed). purified ALR, DTT oxidation, H2O2 HRP-luminol luminescence. P55789;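 active = mean and each replicate at 75% or more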;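 note: stock transfer was 7.5 nL into about 7.5 µL; 0% = neutral wells and 100% = wells with inactivated enzyme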
Target sequence (P55789 whole entry, looked up): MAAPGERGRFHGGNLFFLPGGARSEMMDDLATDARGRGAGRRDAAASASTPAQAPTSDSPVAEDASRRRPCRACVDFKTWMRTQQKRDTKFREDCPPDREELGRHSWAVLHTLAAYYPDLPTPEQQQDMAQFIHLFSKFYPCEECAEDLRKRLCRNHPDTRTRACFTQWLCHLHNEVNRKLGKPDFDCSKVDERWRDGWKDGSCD
Ecoli rRNA inh OD600 – further read-out of Ecoli rRNA inh, marked with its call; OD600 change, %; measured here: OD600 growth;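 optical density of the mix in the first replicate; 0 = DMSO median and -100 = no signal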
Ecoli rRNA inh RFP – second read-out of Ecoli rRNA inh, no call of its own (marks repeat the call); RFP signal change, %; measured here: RFP humanized mutant strains;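 first replicate; 0 = DMSO median and -100 = no signal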
Numbers without * were called inactive; i = inactive; . = no result given; & = joins results of further samples. The list is partial; rates above refer to the full screens.

B2AR ag | HNF4A DNA FP | FGF22 binding | E coli growth | UCH37 DUB inh | Ecoli rRNA inh | Ecoli rRNA inh OD600 | SMILES | Ecoli rRNA inh RFP | ALR H2O2 inh
-3 | 3.3 | i | 0.72 | 2.1 | -1 | 12 | COc1ccc(C(CNC(=O)c2cccc(S(=O)(=O)N3CCOCC3)c2)N2CCOCC2)cc1 (stereo not drawn) | -1.7 | -1
3 | 0.1 | i | 0.72 | 2.0 | 1 | 4 | COc1ccc(/C=C(/NC(=O)c2ccc(OC)cc2)C(=O)NCCc2c[nH]c3ccccc23)cc1 | 7.6 | -3
4 | -1.6 | . | 0.7 | -4.6 | . | . | COc1cccc(N/C(C)=C/C(=O)c2ccc(Br)cc2)c1 | . | -5
-6 | -2.4 | . | 0.69 | 5.8 | . | . | COc1cccc(C(=O)NC(=S)Nc2ccc([N+](=O)[O-])cc2C)c1 | . | -10
6 | -1.4 | i | 0.7 | 3.2 | -19 | -19 | CN(Cc1ccccc1)c1cc(Cl)nc(N)n1 | -3.2 | -3
-1 | -0.9 | i | 0.73 | 6.7 | 23 | 25 | O=C(Cn1cnc2c(OCc3ccccc3)ncnc21)N[C@H](CO)Cc1cc2ccccc2[nH]1 | 0.0 | .
7 | -2.7 | . | 0.63 | 2.0 | 5 | 9 | Cc1ccccc1NS(=O)(=O)c1ccc(C(=O)N2CCCC(C(F)(F)F)C2)cc1 (stereo not drawn) | -1.5 | -8
-3 | 0.4 | i | 0.71 | 3.8 | 8 | 4 | O=C(Nc1cccc(NC(=O)C2C3CC4OC(=O)C2C4C3)c1)c1ccccc1 (stereo not drawn) | 1.4 | 0
-4 | -0.9 | i | 0.67 | -45 | 13 | 9 | CC1CCN(C(=O)CN2C(=O)c3cccc4cccc(c34)C2=O)CC1 | 1.2 | -4
-22 | -11 | . | 0.75 | 3.8 | . | . | Cc1nc(NC(=O)CSc2nc3cccnc3n2C2CCCCC2)sc1C | . | -7
. | -0.4 | i | . | . | 5 | 12 | Cc1c(C(=O)NCc2cccc(Cl)c2)sc(=O)n1Cc1ccc(C(=O)N(C)C)cc1 | 7.9 | .
-3 | 0.9 | i | 0.69 | -2.3 | 8 | 8 | CCOC(=O)Cn1cc(C#N)c(=O)[nH]c1=O | -0.6 | -4
-10 | 2.2 | . | 0.73 | 1.7 | . | . | Cc1nn(Cc2ccccc2Cl)c(C)c1NC(=O)CCCn1nc(C)c([N+](=O)[O-])c1C | . | 1
-37 | -1.7 | i | 0.65 | -11 | 3 | 2 | CNC(=O)COc1ccc(Cl)c2cccnc12 | -2.4 | -12
0 | -5.3 | . | 0.73 | 6.7 | 12 | 0 | COc1ccc(Cl)c2c1[nH]c1nc(SCc3ccccn3)nnc12 | 0.1 | -11
-1 | 4.2 | . | 0.74 | -15 | . | . | CCOC(=O)CC(=O)CSc1nc(-c2cccnc2)cc(C)c1C#N | . | .
-4 | 12 | i | 0.7 | 7.6 | . | . | CCN(CC)S(=O)(=O)c1cc([N+](=O)[O-])ccc1N=Nc1c(O)n(C)c2ccccc12 | . | .
-5 | 0.9 | . | 0.76 | 2.3 | . | . | CCN1C(=O)C(CC(=O)Nc2ccc(OC)cc2)N(Cc2cccnc2)C1=S (stereo not drawn) | . | -7
-1 | 0.6 | i | . | . | 0 | 5 | CC(=O)Nc1ccccc1NC(=O)C/C(C)=N/NC(=O)C1CCCCC1 | -3.5 | .
0 | -2.7 | . | 0.69 | 4.6 | . | . | COc1ccccc1OCc1nc(C#N)c(N2CCC(C(N)=O)CC2)o1 | . | -5
0 | -2.5 | . | 0.6 | 3.8 | . | . | O=C(Nc1ccc(Cl)cc1)Nc1cc([N+](=O)[O-])ccc1F | . | -3
0 | -2.6 | i | 0.7 | 8.3 | -2 | 6 | COC(=O)c1ccc(CSc2ncnc3ccccc23)o1 | -0.5 | -1
-1 | -0.2 | i | 0.66 | 1.1 | -2 | 1 | O=C(CCc1nnc(C2CCCCC2)o1)NCc1ccc(F)c(F)c1 | -0.9 | 4
4 | -16 | i | 0.73 | 1.0 | -2 | 3 | COc1ccc(NS(=O)(=O)c2cccc(C(=O)NNC(=O)c3cccn3C)c2)cc1 | 1.1 | 7
10 | 1.0 | . | 0.65 | 2.1 | . | . | CCOC(=O)C1CCN(Cc2nc3ccccc3c(=O)n2-c2ccc(F)cc2)CC1 | . | -4
11 | 0.6 | . | 0.7 | -0.4 | . | . | CCOC(=O)c1cccc(NC(=O)CSc2nnnn2C)c1 | . | -3
13 | 2.2 | i | 0.65 | -128 | -24 | -27 | COc1ccc(-c2oc3ncnc(NCCCO)c3c2-c2ccc(OC)cc2)cc1 | -10 | -6
2 | 2.6 | . | 0.73 | 0.5 | . | . | CCNC(=O)COC(=O)COc1ccc(Cl)cc1C | . | 1
-5 | -0.1 | i | 0.67 | -0.2 | -5 | -2 | Cc1cccc2c(C(=O)Nn3cnnc3)cc(-c3ccccc3Cl)nc12 | 1.1 | -2
4 | 0.2 | . | 0.7 | 5.5 | . | . | Cc1noc(/C=C/c2ccco2)c1S(=O)(=O)N1CCC(C(=O)NCc2ccco2)CC1 | . | -3

Quoted from the listing:
CCNC(=O)COC(=O)COc1ccc(Cl)cc1C – UCH37 DUB inh: 0.5
CC(=O)Nc1ccccc1NC(=O)C/C(C)=N/NC(=O)C1CCCCC1 – HNF4A DNA FP: 0.6
CCOC(=O)c1cccc(NC(=O)CSc2nnnn2C)c1 – E coli growth: 0.7
O=C(Cn1cnc2c(OCc3ccccc3)ncnc21)N[C@H](CO)Cc1cc2ccccc2[nH]1 – Ecoli rRNA inh OD600: 25

Next part
B2AR ag | HNF4A DNA FP | FGF22 binding | E coli growth | UCH37 DUB inh | Ecoli rRNA inh | Ecoli rRNA inh OD600 | SMILES | Ecoli rRNA inh RFP | ALR H2O2 inh
-9 | -3.2 | i | 0.72 | -1.2 | 9 | 7 | O=S(=O)(Cc1ccc(Cl)cc1)N1CCN(c2ncccn2)CC1 | -1.7 | -8
. | -2.5 | i | . | . | 21 | 3 | COc1ccc(OC)c(CN2C(=O)CSCC2(C)C(=O)NC(C)C)c1 (stereo not drawn) | 2.3 | .
-8 | 0.3 | i | 0.69 | 1.0 | 16 | 12 | OC(COc1ccccc1)CN1CCN(Cc2ccc3c(c2)OCO3)CC1 (stereo not drawn) | 0.5 | -8
-4 | -2.9 | i | 0.66 | -1.0 | 18 | 4 | O=C(c1ccccc1)N1CCN(c2ncccn2)CC1 | 1.0 | -12
0 | 0.3 | i | 0.67 | 2.4 | -1 | -1 | CCS(=O)(=O)N1Cc2ccccc2CC1C(=O)Nc1ccc(F)c(F)c1 (stereo not drawn) | 1.0 | -12
12 | 1.2 | . | 0.74 | 2.3 | . | . | c1ccc(Cn2nnnc2C(c2cccs2)N2CCc3ccccc3C2)cc1 (stereo not drawn) | . | -3
-2 | 0.4 | i | 0.71 | -1.2 | -4 | 2 | Cc1ccc(N2C(=O)CCC2(C(N)=O)c2ccccc2)cc1 (stereo not drawn) | -2.1 | -6
7 | -2.1 | i | 0.66 | 6.5 | 13 | 20 | CCc1sc(/C=C(/C#N)C(N)=S)cc1[N+](=O)[O-] | 4.0 | .
4 | 1.3 | . | 0.73 | 4.6 | . | . | COCCNC(=O)C(c1ccc(C)o1)N(CC1CCCO1)C(=O)Cn1nnc2ccccc21 (stereo not drawn) | . | -12
5 | -3.7 | i | 0.72 | -0.7 | 2 | 0 | Cc1oc(-c2ccccc2F)nc1CS(=O)(=O)CC(=O)N1CCOCC1 | -0.2 | 14
-2 | -2.8 | i | 0.7 | 0.9 | 15 | 9 | Cn1cnnc1SCC(=O)NN1C(=O)NC(C)(c2ccccc2)C1=O (stereo not drawn) | 5.4 | -17
-5 | 0.1 | i | 0.63 | -73 | -26 | -26 | CCCC(NC(=O)CCc1c(C)c2cc3c4c(oc3c(C)c2oc1=O)CCCC4)C(=O)O (stereo not drawn) | -4.7 | 68
2 | -3.2 | . | 0.66 | -0.6 | . | . | CCCn1nnc(NC(=O)c2ccccc2Br)n1 | . | 3
. | 5.3 | i | . | . | 1&-2 | -11&7 | COc1ccccc1S(=O)(=O)N(C)C[C@H]1Oc2cc(Br)ccc2S(=O)(=O)N([C@@H](C)CO)C[C@H]1C | 1.5&1.6 | .
-4 | -2.4 | i | 0.73 | -1.6 | -3 | 10 | COc1ccccc1NC(=O)CN1C(=O)COc2ccc(S(=O)(=O)N3CCC(C)CC3)cc21 | -1.9 | 0
7 | -0.7 | i | 0.71 | 1.9 | -39 | -47 | COc1ccc(NC(=O)CCCOc2ccc(Cl)c(C)c2)cc1S(=O)(=O)N1CCOCC1 | -9.5 | -8
6 | 2.0 | i | 0.7 | 7.7 | 8 | 8 | CN(C)/C=C/C(=O)c1ccc2noc(-c3ccccc3)c2c1 | 0.8 | -5
. | -3.0 | i | . | . | -10 | -14 | Cc1ccc(NC(=O)C2(C)CCN2C(=O)C2(c3ccc(Cl)cc3)CC2)cc1 (stereo not drawn) | -7.6 | .
-10 | -0.2 | i | 0.7 | 11 | 9 | 8 | Cc1cc(/C=C2\NC(=O)NC2=O)c(C)n1-c1cccnc1 | 0.6 | 33
0 | 3.2 | i | 0.7 | 5.3 | -3 | -10 | Cc1ccc(-n2nnnc2-c2ccccc2)cc1 | 0.4 | -9
-11 | -3.5 | . | 0.76 | 5.3 | . | . | CSc1oc(-c2ccccc2)nc1S(=O)(=O)c1ccc(C)cc1 | . | -12
-8 | 1.2 | i | 0.69 | 0.8 | -20 | -16 | COC(=O)[C@@]1(Cc2ccccc2)[C@H]2C(=O)N(Cc3ccccc3)C(=O)[C@H]2[C@H]2CN=C(SC)N21 | 0.8 | .
-7 | 12 | . | 0.67 | 4.0 | . | . | C=CCn1c(SCC(=O)Nc2sccc2C(N)=O)nc2sc(C)c(C)c2c1=O | . | -1
20 | 1.6 | i | 0.67 | -85 | -8 | -20 | COc1cc(-c2cc(C(=O)Nc3ccc(S(N)(=O)=O)cc3)c3ccccc3n2)cc(OC)c1OC | 0.7 | -1
-7 | 1.4 | . | . | . | . | . | CC1(C)S/C(=N/N=C/c2ccco2)NC1=O | . | 0
. | -2.1 | i | . | . | -2 | -17 | COc1ccc2c(c1)c[n+](C)c1c3cc(OC)c(OC)cc3ccc21 | -7.2 | .

Seven neighbouring compounds out of the list so far:
B2AR ag | HNF4A DNA FP | FGF22 binding | E coli growth | UCH37 DUB inh | Ecoli rRNA inh | Ecoli rRNA inh OD600 | SMILES | Ecoli rRNA inh RFP | ALR H2O2 inh
0 | 3.2 | i | 0.7 | 5.3 | -3 | -10 | Cc1ccc(-n2nnnc2-c2ccccc2)cc1 | 0.4 | -9
-11 | -3.5 | . | 0.76 | 5.3 | . | . | CSc1oc(-c2ccccc2)nc1S(=O)(=O)c1ccc(C)cc1 | . | -12
-8 | 1.2 | i | 0.69 | 0.8 | -20 | -16 | COC(=O)[C@@]1(Cc2ccccc2)[C@H]2C(=O)N(Cc3ccccc3)C(=O)[C@H]2[C@H]2CN=C(SC)N21 | 0.8 | .
-7 | 12 | . | 0.67 | 4.0 | . | . | C=CCn1c(SCC(=O)Nc2sccc2C(N)=O)nc2sc(C)c(C)c2c1=O | . | -1
20 | 1.6 | i | 0.67 | -85 | -8 | -20 | COc1cc(-c2cc(C(=O)Nc3ccc(S(N)(=O)=O)cc3)c3ccccc3n2)cc(OC)c1OC | 0.7 | -1
-7 | 1.4 | . | . | . | . | . | CC1(C)S/C(=N/N=C/c2ccco2)NC1=O | . | 0
. | -2.1 | i | . | . | -2 | -17 | COc1ccc2c(c1)c[n+](C)c1c3cc(OC)c(OC)cc3ccc21 | -7.2 | .
